High-throughput results from PubChem BioAssay.
Beta cell apopt: beta cell apoptosis inhibition; actives 0.8% (n = 300,000); protection from apoptosis, % (no concentration beside the values); INS-1E cytokine-induced death, ATP luminescence, 48 h; percent of positive-control rescue, neutral wells zero;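 active means all replicates at 75% or more, or half of them and the mean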;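 further: 0% = cytokine-treated negative control wells and 100% = positive control rescue; higher means more ATP so stronger rescue from cytokine killing; wells of about 40 µL received 100 nL stock; the first replicate is given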
Calb FLC: C. albicans growth modulation with fluconazole; C. albicans CaCi-2 (fluconazole-resistant clinical isolate) + fluconazole, Alamar Blue growth, 48 h; growth inhibition, % (test concentration not listed); actives 0.57% (n = 300,000); AID 1979;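 active means most replicates above 75%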;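 further: all wells also contain fluconazole at 8 µg/ml as a sub-toxic cotreatment; 0% = median of DMSO wells and 100% = median of geldanamycin control wells; wells of about 8 µL received 7.5 nL stock; the first replicate is given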
LANA-H2A inh: blocks KSHV LANA binding to histone H2A/H2B | Q9QR71 | cell-free LANA-H2A/H2B peptide, fluorescence polarization | inhibition, % (no concentration beside the values) | actives 0.6% (n = 320,000) | AID 2629; in the data active means inhibition mostly above about 10%, no sharp cut-off; inactive means mostly below about 6.7%;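 further: stock transfer was 7.5 nL into about 10 µL; 0% = median of vehicle wells and 100% = median of positive control wells; one replicate is shown; the record names a cut of 25% in any replicate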
B2AR ag: human beta-2 adrenergic receptor agonism by FAP; P07550; Am2.2-beta2AR cells, FAP receptor internalization, flow cytometry; reference of the scale not given here; response, % (concentration not given with the values); actives 0.43% (n = 340,000);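 active means response above a set limit, near 3 SD of response in nonfluorescent compounds, cut at about 42% in these data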;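 further: stock transfer was 100 nL into about 11 µL; a reference agonist was the positive control; negative values mostly stem from fluorescent compounds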
Target sequence (P07550 whole entry, looked up): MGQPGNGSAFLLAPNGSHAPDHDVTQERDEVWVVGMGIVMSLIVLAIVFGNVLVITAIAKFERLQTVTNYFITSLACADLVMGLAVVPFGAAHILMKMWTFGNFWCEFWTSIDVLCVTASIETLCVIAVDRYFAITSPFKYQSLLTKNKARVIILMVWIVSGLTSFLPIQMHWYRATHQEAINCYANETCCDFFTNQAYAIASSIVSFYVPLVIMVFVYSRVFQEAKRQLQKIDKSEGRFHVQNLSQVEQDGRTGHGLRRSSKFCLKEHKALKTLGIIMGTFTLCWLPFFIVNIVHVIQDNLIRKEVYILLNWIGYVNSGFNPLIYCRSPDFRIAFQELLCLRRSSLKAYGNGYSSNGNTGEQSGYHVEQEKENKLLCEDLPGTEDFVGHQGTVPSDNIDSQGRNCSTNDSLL
Ecoli rRNA inh: selective bacterial rRNA inhibition in E. coli; E. coli WT GFP vs humanized-ribosome RFP mutants, fluorescence, 24 h; hits give low values; DMSO median 0, no signal -100; GFP signal change (wild-type ribosome), % (no concentration beside the values); actives 1.6% (n = 350,000);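 active means significant combined selectivity score with lowered wild-type GFP, culture density cut under 30%, mutant RFP and density less affected; inactive means any of these conditions unmet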; further: one replicate is shown; some compounds called inactive have numbers as strong as hits
A1 inh: inhibitors of the anti-apoptotic protein A1, read as caspase activation; MEF A1-2A-BIM cells, Caspase-Glo 3/7 luminescence, 3 h; percent of clofoctol response, vehicle zero; caspase activation, % (no concentration beside the values); actives 0.066% (n = 330,000);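 active means over half of replicate activation scores above 10%, or exactly half above 10 with the replicate mean above 10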;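 further: wells of about 30 µL received 50 nL stock; many hits fall short of the cut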
T cruzi repl: T. cruzi replication inhibition | T. cruzi beta-gal in NIH3T3, luminescence, 90 h | inhibition, % (no concentration beside the values) | actives 1.4% (n = 300,000);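 active means mean inhibition across valid replicates above about 55%, limit read from the data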;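 further: signal also drops with host cell toxicity which is not excluded here; 0% = plate median of DMSO wells and 100% = zero luminescence signal; higher percent means less beta-gal luminescence so fewer parasites; stock transfer was 50 nL into about 50 µL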
ALR H2O2 inh: inhibitors of human sulfhydryl oxidase ALR; inhibition, % (no concentration beside the values); purified ALR, DTT oxidation, H2O2 HRP-luminol luminescence; P55789; AID 485317; actives 3.8% (n = 290,000);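 active means mean and each replicate at 75% or more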;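 further: stock transfer was 7.5 nL into about 7.5 µL; 0% = neutral wells and 100% = wells with inactivated enzyme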
Target sequence (P55789 whole entry, looked up): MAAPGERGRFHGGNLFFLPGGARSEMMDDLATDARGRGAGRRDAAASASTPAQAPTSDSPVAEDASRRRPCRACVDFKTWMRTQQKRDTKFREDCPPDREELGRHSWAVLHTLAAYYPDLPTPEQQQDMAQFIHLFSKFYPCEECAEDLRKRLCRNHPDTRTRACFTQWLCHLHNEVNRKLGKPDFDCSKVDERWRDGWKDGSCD
Ecoli rRNA inh OD600: also measured in Ecoli rRNA inh; calls as there; OD600 change, %; measured here: OD600 growth;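 optical density of the mix in the first replicate; 0 = DMSO median and -100 = no signal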
Ecoli rRNA inh RFP: recorded beside Ecoli rRNA inh, whose call it bears; RFP signal change, %; measured here: RFP humanized mutant strains;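 first replicate; 0 = DMSO median and -100 = no signal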
The depositor's hits bear a star; . = not tested or not shown. Not all compounds are listed; count on the stated rates, not on these rows.

SMILES	Beta cell apopt	Calb FLC	LANA-H2A inh	B2AR ag	Ecoli rRNA inh	Ecoli rRNA inh OD600	Ecoli rRNA inh RFP	A1 inh	T cruzi repl	ALR H2O2 inh
CC(NC(=O)c1ccccc1)c1nnc(SCc2nc3ccccc3c(=O)[nH]2)n1C (centres undefined)	1.8	0.1	3.2	4.4	11.8	12.4	-10.7	-0.2	7.9	-3.3
Cc1cc(/C=N\NC(=O)COc2cccc3cccnc23)c(C)n1-c1ccccc1	13.9	-0.4	2.8	-5.2	-11.6	-15.8	-1.6	-0.1	12.0	-2.9
CCCN(C(=O)CSc1ncnc2sccc12)c1c(N)n(Cc2ccccc2)c(=O)[nH]c1=O	-0.8	.	-1.1	-9.2	-2.0	0.7	-1.5	0.1	.	.
Cc1c(NC(=O)CSc2nc(N)cc(N)n2)c(=O)n(-c2ccccc2)n1C	-4.6	.	.	-8.3	4.4	15.3	-1.1	-0.3	.	-0.3
O=C(NC1CCCN(Cc2ccc(Cl)cc2)C1)c1ccccc1-c1ncc[nH]1 (centres undefined)	.	0.2	.	3.0	-2.4	-2.4	-1.3	.	42.9	.
CCn1c(NC(C)=O)nc2ccccc21	-6.0	-5.0	0.9	0.1	.	.	.	0.6	-6.6	0.1
Clc1ccc(Oc2nc3ccccc3n3cccc23)cc1	5.7	-5.3	-7.2	-2.0	.	.	.	0.4	6.5	6.0
COCCN1C(=O)c2cc(C(=O)Nc3ccc(OC)c(OC)c3)ccc2C1Nc1ccc(OC)c(OC)c1 (centres undefined)	1.7	14.9	-2.9	2.2	3.4	-0.5	4.8	0.4	0.6	10.3
COc1ccc(-c2ccc(/C=C(\NC(=O)c3ccccc3)C(=O)N3CCOCC3)o2)cc1	0.4	35.0	9.7	-2.7	-11.3	-23.6	-0.1	-0.6	25.2	97.8*
COc1ccc(-c2cc(C(=O)OCC(=O)NC3CC3)c3ccccc3n2)cc1OC	2.2	.	4.5	0.8	-5.1	1.3	3.3	-1.2	.	3.4
COc1ccccc1C(=O)Nn1cnnc1	-5.0	-2.5	-4.7	-1.6	7.6	4.3	0.0	-0.6	-6.0	.
CSC1=C(C#N)C(c2ccccc2)C(C(C)=O)=C(C)N1 (centres undefined)	-1.7	-9.7	-2.2	1.1	-0.5	0.8	-1.1	0.6	10.7	22.3
O=C(CSc1ccc2ccccc2n1)c1ccccc1	2.7	-3.7	0.4	2.2	-12.9	-15.3	-0.2	-1.4	-1.7	.
Nc1c(S(=O)(=O)c2ccccc2)c2nc3ccccc3nc2n1/N=C/c1cccc(O)c1	14.0	1.4	0.6	38.1	.	.	.	1.9	43.1	-0.3
Nc1nc(CN2CCN(c3ccccn3)CC2)nc(Nc2ccc(Cl)cc2)n1	1.0	15.4	-0.7	-6.2	.	.	.	-0.2	-5.3	.
Cc1ccc(NC(=O)CNNC(=O)c2cccc([N+](=O)[O-])c2)cc1[N+](=O)[O-]	2.8	.	4.6	-7.0	-10.9	5.0	-4.6	-0.1	.	11.6
O=C(CSCc1c(Cl)cccc1Cl)NCc1ccccn1	1.7	-1.6	3.4	5.9	-22.8*	-1.4*	2.3*	-0.2	-21.6	.
Cc1ccc(-c2nnc(N3CCN(C(=O)CSc4ncn[nH]4)CC3)c3ccccc23)cc1	5.3	.	0.2	-14.2	.	.	.	0.4	.	-0.7
CCN1CCCC1CNCc1ccc(OCc2ccc(Cl)nc2)c(OC)c1 (centres undefined)	-7.6	-4.4	3.6	5.6	5.1	7.5	-2.0	0.4	11.8	-7.4
Cn1c(N)c(C(=O)CN2CCc3ccccc3C2)c(=O)n(C)c1=O	-5.4	-4.5	-8.4	-0.1	10.1	4.2	6.5	1.3	-16.2	.
Cc1ccc(C=Nc2ccccc2C(=O)Nc2ccccc2)cc1	3.5	5.9	-2.9	14.7	.	.	.	-1.3	-1.0	-2.0
COc1ccc(/C=C(\C#N)C(=O)OCC(=O)NC(C)c2ccccc2)cc1 (centres undefined)	-7.0	-0.8	0.3	1.2	3.7	9.9	-2.2	0.2	-13.5	-8.0
CCN(C(=O)/C=C/c1cc(OC)c(OC)c(OC)c1)C1CCCCC1	1.6	10.3	1.7	-4.8	-10.5	-16.1	-1.4	0.2	12.4	-12.3
Cn1c(C(=O)NCc2ccccn2)cc2c(=O)n3ccccc3nc21	.	0.0	-4.6	-4.0	.	.	.	-0.6	4.5	-8.8
Cc1cccc(C)c1OCc1cc(C(=O)N(C)Cc2nc3ccccc3[nH]2)no1	0.4	-3.2	-4.0	-3.9	-19.4	-36.5	23.2	0.0	13.0	-6.8
C=CCn1c(-c2csc(-c3ccccc3)n2)n[nH]c1=S	-2.6	8.0	1.3	2.1	.	.	.	-0.7	-0.2	14.2
N#C/C(=C(/O)c1ccco1)c1nc2ccccc2[nH]1	-8.7	78.9*	-0.9	-6.8	1.8	2.9	2.9	-1.7	15.2	-6.5
COc1ccc2c(c1)[nH]c1c(=O)n(CCN3CCOCC3)cnc12	-5.9	1.2	1.0	-3.2	-2.7	-2.1	4.0	-0.2	-6.4	26.3
Cc1cc(NC(=O)Cn2nnc(-c3ccccc3N)n2)no1	-13.8	-1.6	-1.1	-17.7	.	.	.	0.3	-4.2	.
COc1ccccc1NC(=O)CS(=O)(=O)c1cccc2nsnc12	-4.5	-7.5	5.3	2.7	.	.	.	-0.1	-13.1	-4.3
Cc1ccc(/C=C/c2nc3ccccc3c(=O)[nH]2)cc1	9.6	-4.7	-6.7	-7.8	-3.3	1.3	-2.4	-8.1	3.7	.
Cc1cc(C)n2nc(C(=O)NCc3cccc(C(F)(F)F)c3)nc2n1	-4.4	6.1	6.7	0.6	1.8	10.2	1.5	0.0	75.8*	3.3
Cc1noc(COc2ccccc2OCC(N)=O)n1	.	-1.5	-0.5	-4.4	7.2	6.4	-1.7	0.5	-32.6	-4.3
O=C(/C=C/c1ccc(Cl)cc1)Nc1ccccc1N1CCOCC1	-3.1	-11.8	-2.4	-8.0	1.3	7.1	-3.4	0.4	1.6	.
COC(=O)c1sccc1NC(=O)CNC(=O)c1ccccc1	2.6	1.1	2.0	-6.0	-22.8*	-7.2*	0.6*	0.1	-2.0	-3.7
Cc1ccc(S(=O)(=O)N2Cc3ccccc3CC2C(=O)Nn2cnnc2)cc1 (centres undefined)	-5.1	-14.6	-1.0	3.5	.	.	.	0.4	-8.6	0.2
Cc1cnc(NC(=O)CSc2nnc(-c3ccccc3)o2)s1	-2.5	-14.5	-2.4	-1.5	.	.	.	-0.3	-11.4	65.9
COc1ccc(Nc2nc(-c3ccccc3F)nc3ccccc23)cc1OC	14.8	29.1	-4.1	7.9	-17.6	-61.0	12.7	-0.3	23.9	-15.5
CC(C)(C)NC(=O)C(=O)NNC(=O)c1cccc(F)c1	-0.5	7.8	0.8	-0.8	11.3	7.1	2.0	0.5	-10.6	.
O=C(Nc1ccc(F)cc1)N1CCCN(c2nccc(C(F)(F)F)n2)CC1	-7.2	59.5	2.2	-13.0	-11.1	-19.5	-2.3	0.3	-16.7	-3.1
N#CC1(c2ccccc2)CCCN1C(=O)c1ccc(Br)cc1 (centres undefined)	-3.4	-7.8	-2.0	1.8	.	.	.	-0.3	2.7	-25.9
Cc1oc(-c2ccc(Cl)cc2)nc1CS(=O)CC(=O)NC1CC1 (centres undefined)	-4.8	-3.3	-0.7	-0.5	10.5	3.7	-7.2	-0.9	-20.0	98.7*
CCOC(=O)c1sc2nc(C)nc(NCc3ccc(Cl)cc3)c2c1C	9.5	-3.1	0.8	-0.5	1.6	1.7	0.6	0.1	20.8	-7.9
c1ccc2[nH]c(CSc3nccs3)nc2c1	-8.4	-2.9	3.0	7.5	4.4	6.6	-2.1	0.2	-9.6	-25.0
O=C(NCC(=O)N(c1cccc(F)c1)C(C(=O)NC1CCCC1)c1ccncc1)c1ccco1 (centres undefined)	-0.1	0.5	0.3	-9.2	1.1	4.0	-1.8	0.4	-5.4	3.7
COC(=O)c1oc2ccccc2c1NC(=O)CN1CCCC1	-5.9	-3.1	2.5	-0.4	.	.	.	0.6	-18.5	0.4
COc1ccc(Nc2cc(C(=O)NCCCN3CCN(C)CC3)c3ccccc3n2)cc1	0.6	5.1	2.5	47.3*	.	.	.	0.1	5.0	.
COc1ccc(C(=O)CN2CCN(c3ccc(F)cc3)CC2)cc1	8.4	-5.1	4.9	4.5	2.6	-10.1	-6.0	0.3	-10.1	.
Cc1cccc(Nc2nc(N)nc(CN3CCC(C(N)=O)CC3)n2)c1C	-1.1	.	0.0	-5.0	.	.	.	-2.4	-9.5	-1.0
O=C(NCCCn1ccnc1)/C(=C\c1cccs1)NC(=O)c1cccs1	-1.6	4.9	-2.7	-0.4	18.6	11.6	-0.7	-0.8	-9.7	-11.2
c1ccc(COn2nnc3ccccc32)c(COn2nnc3ccccc32)c1	7.2	-0.6	-0.7	-15.5	-42.7*	-11.4*	-7.6*	0.5	6.7	2.3
N#CCCN(CCC#N)S(=O)(=O)c1ccc(C(=O)Nc2nnc(C3=COCCO3)o2)cc1	-4.8	-13.1	4.3	4.3	9.1	14.4	-0.9	0.7	-2.1	-17.0
CCN(C(=O)COC(=O)c1cccc(S(=O)(=O)N(CC)CC)c1)C1CCS(=O)(=O)C1 (centres undefined)	3.9	7.0	-1.4	-3.8	4.9	6.6	1.4	-0.8	-2.1	30.8
CN1CCN(c2cc(-c3cc(O)c4ncccc4c3)ccn2)CC1	2.8	.	-7.7	-23.3	-32.5	-42.1	-16.8	1.0	.	-10.5
COc1ccc(S(=O)(=O)Nc2cccc(F)c2)cc1C	-5.0	-2.9	-4.4	-3.7	-25.2	-39.6	-4.6	-0.6	0.7	2.8
CC(C)COc1ccc(/C(=N/O)c2ccccc2)cc1	2.5	-1.1	2.6	-7.5	.	.	.	0.0	44.7	-1.7
Cc1cc(C(=O)COC(=O)C2=NNC(=O)CC2)c(C)n1-c1cccc(C(F)(F)F)c1	2.2	10.5	3.9	-0.6	.	.	.	0.4	-9.0	1.8
CC(=O)Nc1ccc(S(=O)(=O)N2CCC(C(=O)Nc3nccs3)CC2)cc1	-5.4	-1.0	-1.2	-6.3	4.2	0.7	-4.9	-0.1	-3.7	0.8
COc1ccccc1C(=O)NCCC(=O)N(C)CC(=O)Nc1ccc(C)cc1	-3.5	-11.3	-1.3	8.0	-3.8	-9.0	-1.1	0.6	-9.8	0.9
O=C(COC(=O)c1cc(-c2ccccn2)nc2ccccc12)Nc1ncc(C(F)(F)F)cc1Cl	0.7	-6.1	-2.8	-14.8	9.5	7.8	1.6	-0.7	-10.2	.
Cc1cc(Nc2ccccc2)nc(N2CCOCC2)n1	-8.5	-3.0	1.5	11.1	.	.	.	0.1	7.0	-3.1

Quoted from the listing:
For Ecoli rRNA inh OD600, c1ccc(COn2nnc3ccccc32)c(COn2nnc3ccccc32)c1 has -11.4*
For Ecoli rRNA inh RFP, CCN(C(=O)COC(=O)c1cccc(S(=O)(=O)N(CC)CC)c1)C1CCS(=O)(=O)C1 (centres undefined) has 1.4
